Bioassay records deposited in PubChem by National Center for Advancing Translational Sciences (NCATS).
PINK1 modulator: PINK1 expression modulation. PINK1 immunofluorescence, high-content cytometry, 24 h. Potency, µM (highest dose often 76.6 µM), without a hit: top-dose activation (PINK1 increase), usual class: activators. 410,000 tested, 0.2% active; active = well fitted activation curve with a large enough effect; inconclusive = small, poorly fitted or top-dose-only effect; inactive = flat fitted curve, though single readings scatter; cell line not stated here;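 also: % of control where 0% means no effect; nearly all actives have a fitted effect of over 65% in size; a mitochondrial uncoupler was the plate control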
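PINK1 protein level read as immunofluorescence by microplate cytometer in a fixed, stained stable cell line after 24 h exposure to five compound concentrations, with CCCP as control.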
Numbers without * were called inactive. Potency is read from the fitted curve at half-maximal effect.

Start of the data: the first 7 entries, ahead of the listing:
SMILES	PINK1 modulator
CN1CCN(c2ncc3nc(-c4cccs4)c(=O)n(CCc4ccccc4)c3n2)CC1	20%
Cn1c(=O)c(-c2ccccc2)nc2cnc(N3CCOCC3)nc21	-0.5%
COCCn1c(=O)c(-c2cn(C)c3ccccc23)nc2cnc(Oc3ccccc3)nc21	0.2%
Cc1cc(C(=O)Nc2ccccc2-c2nc(CNC(=O)c3cscn3)c(C)o2)c(C)o1	0.3%
COc1ccccc1C1CN(CC(=O)N2CCC(N3CCOCC3)CC2)Cc2ccccc2O1 (stereo not given)	-1.1%
O=c1c(-c2ccc(F)cc2)nc2cnc(Nc3ccccc3)nc2n1C[C@H]1CCCO1	2.7%
COc1ccccc1CN1CC2(CCN(S(=O)(=O)c3ccccc3)CC2)C1	0.7%

The listing, from the first entry:
SMILES	PINK1 modulator
CN1CCN(c2ncc3nc(-c4cccs4)c(=O)n(CCc4ccccc4)c3n2)CC1	20%
Cn1c(=O)c(-c2ccccc2)nc2cnc(N3CCOCC3)nc21	-0.5%
COCCn1c(=O)c(-c2cn(C)c3ccccc23)nc2cnc(Oc3ccccc3)nc21	0.2%
Cc1cc(C(=O)Nc2ccccc2-c2nc(CNC(=O)c3cscn3)c(C)o2)c(C)o1	0.3%
COc1ccccc1C1CN(CC(=O)N2CCC(N3CCOCC3)CC2)Cc2ccccc2O1 (stereo not given)	-1.1%
O=c1c(-c2ccc(F)cc2)nc2cnc(Nc3ccccc3)nc2n1C[C@H]1CCCO1	2.7%
COc1ccccc1CN1CC2(CCN(S(=O)(=O)c3ccccc3)CC2)C1	0.7%
CSc1ncccc1C(=O)NCC1Cc2cc(-c3cnccn3)ccc2O1 (stereo not given)	-0.9%
c1ccc2c(NCCN3CCOCC3)nc(-c3ccoc3)nc2c1	-0.8%
COCC(=O)N1CCC2(CCN(Cc3ccncc3)CC2)CC1	-0.1%
COc1ccc(CN2Cc3ccccc3OC(c3ccccc3OC)C2)cc1O (stereo not given)	6.1%
O=c1c(CCc2ccccc2)nc2cncnc2n1Cc1ccccc1	-0.2%
CN(C)c1ncc2nc(-c3cn(C)c4ccccc34)c(=O)n(C[C@H]3CCCO3)c2n1	0.2%
CCOC(=O)CN(C)C(=O)c1cnn(-c2ncc3c(n2)-c2ccccc2CCC3)c1C	-0.8%
CS(=O)(=O)N1CCC2(CC1)CN(C(=O)Nc1cccc(C#N)c1)C2	0.5%
COC(=O)C1CCN(Cc2ccc3c(c2)CN(C(=O)c2ccc4nc(C)c(C)nc4c2)CCO3)CC1	0.9%
CN(C)c1ccc(-c2nc(N3CCNCC3)c3ccccc3n2)cc1	1.7%
O=c1c(-c2cccc(F)c2)nc2cncnc2n1Cc1ccc(F)cc1	0.1%
COc1ccc(CN2CCc3nnc(CCc4ccccc4)n3CC2)c(OC)c1C	0.0%
COc1ccccc1CCn1c(=O)c(-c2cccc(Cl)c2)nc2cncnc21	-0.1%
COc1ccc(C(=O)N2CCC[C@@]3(CCN(Cc4nccs4)C3)C2)cc1	-0.4%
CS(=O)(=O)Nc1cccc(-c2nccc(Nc3ccc(F)cc3)n2)c1	-0.1%
CCN1C(=O)CC(CC(=O)N2CCCCC2c2nccs2)(c2ccccc2C)C1=O (stereo not given)	0.4%
O=C(c1cnccn1)N1CCC[C@@]2(CCN(C(c3ccccc3)c3ccccc3)C2)C1	-0.3%
COc1ccc(Oc2ncc3nc(CCc4ccccc4)c(=O)n(C)c3n2)cc1	-0.6%
(continued)
SMILES	PINK1 modulator
COc1ccc(CNc2ccnc(-c3ccoc3)n2)c(OC)c1	2.6%
O=C(c1cc(C(F)(F)F)cc(C(F)(F)F)c1)N1CCC2(CC1)CN(Cc1ccccc1)C2	0.3%
CN(C)C(=O)c1ccc(-c2ccc3ncnc(Nc4ccccc4)c3c2)cc1	5.8%
COc1ccc(CNc2ncnc3ccc(-c4ccc(C(=O)N(C)C)cc4)cc23)c(OC)c1	1.7%
COc1ncc2nc(-c3cn(C)c4ccccc34)c(=O)n(CCc3ccccc3)c2n1	2.4%
COCc1ccc(C(=O)N2CCOc3ccc(CN4CCN(c5ccc(F)cc5)CC4)cc3C2)o1	-0.1%
O=C(O)c1ccc(-c2cccc(-c3nn4c(=O)cc(N5CCNCC5)nc4s3)c2)cc1	2.0%
Nc1nc2nc(Cl)[nH]c2c(=O)[nH]1	-0.5%
COc1cc(=O)n2c(c1C(=O)NC(C)c1ccco1)CCN(Cc1cc(C)cc(C)c1)CC2 (stereo not given)	0.3%
CN(C)Cc1ccccc1-c1nc(NCc2cccs2)c2ccccc2n1	4.9%
COc1ccc(OC)c(CN2CCCC(c3nc(-c4ccncc4)ncc3-c3ccccc3C)C2)c1 (stereo not given)	0.8%
COCC(=O)N1CCC2(CCCN(c3ccc(-c4ccccc4)cc3)C2)CC1	0.0%
COc1ccc(-n2c(CCNC(=O)c3ccccc3C(F)(F)F)nnc2SC)cc1	-0.2%
Cc1ncc2c(c1CNS(=O)(=O)N(C)C)CCN(C(=O)/C=C/c1ccccc1Cl)C2	-0.1%
COCCNc1cc(-c2ccccc2CN(C)C)ncn1	-0.8%
COc1ccc(-n2c(=O)c(-c3cccs3)nc3cnc(N4CCOCC4)nc32)cc1	7.0%
c1cn(-c2ncnc3ccc(-c4ccoc4)cc23)cn1	-1.5%
Cn1nnnc1Sc1ncnc2scc(-c3cccc(F)c3)c12	-0.6%
Cc1cccc2cc(CN(CC3CCCO3)C(=O)c3ccccc3F)c(N(C)C)nc12 (stereo not given)	0.4%
O=c1c(-c2ccc(F)cc2)nc2cnc(N3CCOCC3)nc2n1CCc1ccccc1	5.4%
COc1ccccc1-c1ccc2ncnc(N3CCNCC3)c2c1	0.6%
O=C(c1cc(C(F)(F)F)cc(C(F)(F)F)c1)N1CCC2(CCCN(Cc3ccncc3)C2)CC1	1.3%
Cc1noc(C)c1-c1nccc(NCc2cccs2)n1	0.6%
COc1ncc2nc(-c3cn(C)c4ccccc34)c(=O)n(C[C@H]3CCCO3)c2n1	2.7%
COc1ccccc1-c1ccc(C(=O)N2CCC(N3CCc4ccccc4C3)CC2)c(N(C)CC2COCCO2)n1 (stereo not given)	-0.4%

In another format: three of the compounds above
SMILES | PINK1 modulator
COc1ccc(-n2c(=O)c(-c3cccs3)nc3cnc(N4CCOCC4)nc32)cc1 | 7.0%
c1cn(-c2ncnc3ccc(-c4ccoc4)cc23)cn1 | -1.5%
Cn1nnnc1Sc1ncnc2scc(-c3cccc(F)c3)c12 | -0.6%

The list goes on.
SMILES	PINK1 modulator
CCn1cnc2c(Nc3cccc(Cl)c3)nc(C#N)nc21	1.3%
COc1ccc(-c2cccc3c2OC(CNC(=O)c2ccccc2-n2cccn2)C3)nn1 (stereo not given)	-0.7%
CC(=O)N1CCC[C@H]1C(=O)NCC1Cc2cc(C)cc(-c3ccc(Cl)cc3)c2O1 (stereo not given in full)	0.7%
COc1cc(-c2ccc(C(F)(F)F)cn2)cc2c1OCCN(S(=O)(=O)C[C@]13CC[C@H](CC1=O)C3(C)C)C2	1.0%
Cc1cnc(SCc2ccccn2)nc1C1CCCN(C(=O)c2noc3c2CCCC3)C1 (stereo not given)	-0.2%
Cc1ncc2c(c1CNC(=O)c1cncs1)CCN(C(=O)c1cccc(-c3cccc(F)c3)c1)C2	0.2%
[N-]=[N+]=NCC1OC(n2cnc3c(=O)[nH]c(N)nc32)C(O)C1O (stereo not given)	-0.2%
COCC(=O)N1CCC2(CC1)CCN(C(=O)NC(C)C)CC2	0.8%
Cc1noc(C)c1C(=O)N1CCC2(CCCN(c3ccccc3)C2)CC1	-0.7%
CN(C)c1ccc(-c2cncnc2Nc2ccc(F)cc2)cc1	-0.4%
NC(=O)c1ccnc2c(O)cccc12	1.1%
N#Cc1cccc(-c2cc(-n3ccnc3)ncn2)c1	-0.2%
COc1cc(-c2nc(C)cnc2C)cc2c1OCCN(C(=O)Cn1nc(-c3ccccc3)c3ccccc3c1=O)C2	-0.1%
CN1CCN(c2ncc3ncc(=O)n(Cc4cccs4)c3n2)CC1	-1.2%
O=S(=O)(c1ccccc1)N1CCC2(CCN(c3cccc(-c4ccccc4)c3)CC2)CC1	1.0%
COCCn1c(=O)c(-c2cccs2)nc2cnc(Oc3cccc(Cl)c3)nc21	1.5%
COc1cccc(-c2cncnc2Nc2ccc(F)cc2)c1	-0.7%
COC(=O)c1cccc(C(=O)N2CCc3c(cnc(C)c3CNC(=O)c3ccsc3)C2)c1	-0.9%
Cn1c2cc(Br)sc2c2cnn(Cc3c(F)cccc3Cl)c(=O)c21	-1.0%
Cc1cc2c(c(-c3ccc4nc(C)ccc4c3)c1)OC(CNC(=O)Cc1ccn(C)c1)C2 (stereo not given)	0.5%
COc1ccc(-n2c(=O)c(-c3cccs3)nc3cnc(Oc4ccccc4)nc32)cc1	3.2%
Oc1cc(NCCN2CCOCC2)cc2cccnc12	-0.7%
O=C(c1ccco1)N1CCC[C@@]2(CCN(c3ccccn3)C2)C1	-0.6%
Cc1cc2c(c(-c3cnccn3)c1)OC(CNC(=O)c1ccc(-n3nc(C)cc3C)cc1)C2 (stereo not given)	0.0%
O=C(O)CN1C(=O)N/C(=C\c2cccn2-c2ccc(P(=O)(O)O)cc2)C1=O	-1.3%
Continuation.
SMILES	PINK1 modulator
Cc1oc(-c2ccccc2NC(=O)C2CCCO2)nc1CNC(=O)c1[nH]c2c(C)ccc(C)c2c1C (stereo not given)	1.0%
COc1ccc2[nH]cc(CCNc3ncncc3-c3ccccc3CN(C)C)c2c1	1.8%
CC(NC(=O)c1cc(F)ccc1F)c1nnc2n1CCN(Cc1ccccc1O)CC2 (stereo not given)	0.2%
COc1ccccc1-c1cncnc1Nc1ccccc1	-0.5%
COCCNc1cc(-c2c(C)noc2C)ncn1	-1.1%
Cc1cnc(CNc2ncncc2-c2c(C)noc2C)cn1	6.2%
COc1cc(=O)n2c(c1C(=O)N(C)Cc1cscn1)CCN(Cc1c(C)[nH]c3ccccc13)CC2	1.3%
CSc1nnc(CNS(=O)(=O)c2ccc(F)cc2F)n1-c1ccccc1C	0.1%
COc1ccc(NC(=O)N2CC3(CCN(C(=O)c4c(C)noc4C)CC3)C2)cc1	1.0%
O=C(OCC#CCSc1nnc(-c2cccc3ccccc23)o1)c1cnc[nH]1	3.1%
Fc1ccc(Nc2nc(-c3cccnc3)nc3ccccc23)cc1	1.0%
COCCN1CCN(C(=O)c2cnn(-c3nccc(-c4ccco4)n3)c2C(C)C)CC1	-0.9%
CN(Cc1ccco1)c1ncncc1-c1cccc(NS(C)(=O)=O)c1	-0.6%
COc1ccccc1-c1ccc(C(=O)N(C)CC2COCCO2)c(N2CCN(c3ccccc3F)CC2)n1 (stereo not given)	-0.1%
N#Cc1cccc(NC(=O)N2CCCC3(CCN(C(=O)c4csnn4)CC3)C2)c1	-0.9%
COc1ccccc1-c1ccnc(-n2ncc(C(=O)N3CCN(C4CCCC4)CC3)c2-c2ccco2)n1	-0.9%
O=c1cnc2cnc(N3CCNCC3)nc2n1C1CC1	-0.3%
CC(=O)N1CCC2(CC1)CN(Cc1cc(C(F)(F)F)cc(C(F)(F)F)c1)C2	0.9%
O=c1c(-c2ccc(F)c(F)c2)nc2cncnc2n1Cc1ccccc1	1.3%
COC(=O)C1CCCCN1Cc1ccc2c(c1)CN(C1CCSCC1)CCO2 (stereo not given)	0.7%
COc1ccccc1-c1ccnc(-n2ncc(C(=O)NCCCN3CCOCC3)c2C)n1	0.3%
COc1ccc(C(=O)N2CCC3(CC2)c2ccccc2[C@@H](NC(=O)c2ccccn2)[C@@H]3OC)c(O)c1	-1.3%
COc1cccc(-c2cc(NCc3cccs3)ncn2)c1	0.0%
CCn1c(-c2ccccc2F)nc2cc(NC(C)=O)cc(C(=O)N3CCCC3c3nccs3)c21 (stereo not given)	-1.1%
Cc1cc(C(=O)NCc2nc(-c3cccc(NC(=O)c4cc(C)oc4C)c3)oc2C)nc(C)n1	1.1%
The list goes on.
SMILES	PINK1 modulator
COc1ccc(CN2CCC(n3cc(C(=O)N4CCCC4)nn3)CC2)c(OC)c1C	-0.4%
Cc1ccc(C(=O)N(Cc2cc3cccc(C)c3nc2N2CCC(O)CC2)C2CC2)cc1	1.1%
CN(C)c1ncc2nc(-c3cc(F)cc(F)c3)c(=O)n(CCc3ccccc3)c2n1	4.1%
COc1cc(=O)n2c(c1C(=O)N(C)Cc1nonc1C)CCN(Cc1cc(C)ccc1C)CC2	0.6%
CC(=O)N1CCN(C(=O)c2sc3ncnc(NCC4CCCO4)c3c2C)CC1 (stereo not given)	0.3%
c1csc(CNc2ncncc2-c2ccc3c(c2)OCO3)c1	7.5%
COCC(=O)N1CCC2(CCCN(Cc3ccccc3OC)C2)CC1	0.2%
CC(=O)N1CCN(c2ccc(NCc3ccc(Br)o3)cc2)CC1	1.1%
Cc1ccc(C)c(C(=O)N2CCC(C3(c4ccccn4)NC(=O)N(CC4CCCO4)C3=O)CC2)c1 (stereo not given)	-0.7%
COCCn1c(=O)c(-c2ccccc2)nc2cnc(OCc3ccccc3)nc21	-0.2%
CC1CCC(C(C)(C)O)CC2=C1CCC2C (stereo not given)	0.7%
Cc1c(C(=O)NCC2(N3CCOCC3)CCCCCC2)cnn1-c1nccc(-c2ccccc2F)n1	-0.8%
Cc1ccnn1CC(=O)N1CCOc2c(cc(-c3csc4ccccc34)cc2OC2CCOC2)C1 (stereo not given)	3.3%
Cc1nc(NCc2cnn(C)c2)sc1-c1ccn(-c2cccc(F)c2)n1	2.4%
CN(C)Cc1ccccc1-c1cncnc1Nc1ccccc1	5.7%
Cc1noc(C)c1C(=O)N1CCC2(CC1)CCN(C(c1ccccc1)c1ccccc1)CC2	-0.4%
COc1ccccc1CNc1ncnc2ccc(-c3cccc(NS(C)(=O)=O)c3)cc12	4.0%
CN(Cc1ccco1)c1cc(-c2ccc3c(c2)OCO3)ncn1	0.6%

2 entries drawn at random from the list so far:
SMILES	PINK1 modulator
COc1ccc(CN2CCC(n3cc(C(=O)N4CCCC4)nn3)CC2)c(OC)c1C	-0.4%
c1csc(CNc2ncncc2-c2ccc3c(c2)OCO3)c1	7.5%

These rows are one share of the data; the hit share may differ from the screen's.
